# N370S GC mod: inhibits or activates N370S mutant glucocerebrosidase; P04062; N370S GC spleen homogenate, 4MU-glucoside fluorescence; Potency, µM (doses to about 59.4 µM), inactives show at the top dose activity change, negative = inhibition, actives largely listed as inhibitors; hit rate 0.092% among 330,000; AID 2101;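 further: 0% = full enzyme activity and -100% = no enzyme basal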
# FEN1 inh: human FEN1 inhibition; hit rate 0.35% among 390,000; Potency, µM (doses to about 114 µM), without a hit: at the highest dose activity change, negative = inhibition, most hits filed as inhibitors; AID 588795; Recombinant FEN1 flap cleavage, fluorescence, 15 min; further: nearly all actives have a fitted effect of over 65% in size
# Target sequence (P39748 whole entry, looked up): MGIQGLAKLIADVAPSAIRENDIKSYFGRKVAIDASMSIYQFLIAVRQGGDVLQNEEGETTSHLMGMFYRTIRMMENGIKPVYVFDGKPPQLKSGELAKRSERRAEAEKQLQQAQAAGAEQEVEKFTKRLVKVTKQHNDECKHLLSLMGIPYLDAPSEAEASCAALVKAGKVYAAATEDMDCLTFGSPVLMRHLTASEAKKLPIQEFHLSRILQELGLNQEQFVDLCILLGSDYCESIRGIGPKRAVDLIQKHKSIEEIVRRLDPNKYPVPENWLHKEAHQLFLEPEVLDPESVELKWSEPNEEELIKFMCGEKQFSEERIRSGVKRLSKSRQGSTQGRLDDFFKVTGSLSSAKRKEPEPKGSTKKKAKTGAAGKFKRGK
#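 FEN1 at 10 nM preincubated with compounds 15 min at room temperature, then flap DNA substrate added at 50 nM final. Signal read at 0 and 15 min; concentration-response fitted with four-parameter Hill equation.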
# Active calls of the source: *; . = no result given; & = joins results of further samples. The call rests on the fitted dose curve; in most records, active means well fitted curve in the direction sought with a large enough effect; inconclusive means small, poorly fitted or top-dose-only effect, or another doubt; inactive means no such curve, though single readings can be large; an effect the other way counts as inactive or inconclusive. Unless noted, on the % scale 0 is the no-effect control and ±100 the full control effect; potency means the concentration at half of the fitted maximal effect. This is a subset; most or all hits stand in other tables.
Structure	N370S GC mod	FEN1 inh
COc1cc2c(cc1OC)-c1c3c(cc4c1[C@@H](C2)N(C)CC4)OCO3	1%	2.5µM*
N#Cc1cc2c(nc1SCC(=O)Nc1cc(Cl)cc(Cl)c1)C1CCN2CC1	11%	12%
COC(=O)C1=C(c2ccc(C(C)=O)cc2)C[C@@H]2CC[C@H]1N2C(=O)NC1CC1	.	5%
CC(C)CC(=O)NC(Oc1ccc(Cl)cc1)C(Cl)(Cl)Cl (stereo not given)	-8%	0%
COC1=CCC2([N+](=O)[O-])CN(C)CC1([N+](=O)[O-])C2 (stereo not given)	11%	20%
C[C@]12CCC3C(C[C@@H](O)[C@H]4C[C@@H](O)CC[C@]34C)C1CC[C@@H]2O (stereo not given in full)	.	-11%
Cc1ccccc1N1C(=O)NC(=O)/C(=C\c2cnn(-c3ccccc3)c2)C1=O	-10%	-13%
CCc1ccc(OCC(=O)N2CCN(CC(=O)Nc3ccccc3Cl)CC2)cc1	.	-3%
C/C=C1\NC(=O)[C@@H](NC(=O)[C@H](CCc2ccc(O)cc2)NC(=O)[C@H](C)NC(=O)[C@H](O)CO)[C@@H](C)OC(=O)[C@H](C(C)C)NC(=O)[C@H](Cc2ccc(O)cc2)N(C)C(=O)[C@H](Cc2ccccc2)N2C(=O)C(CC[C@H]2O)NC1=O (stereo not given in full)	.	-16%
C[N+](C)(C)CC(=O)O	1%&-3%	0%
O=S1OCC2C(CO1)C1(Cl)C(Cl)=C(Cl)C2(Cl)C1(Cl)Cl (stereo not given)	19%&11%	.
Cc1onc(-c2c(Cl)cccc2Cl)c1/C(N)=N/OC(=O)N(C)C	-14%	-1%
O=[N+]([O-])c1ccc(C2[C@H]3C(c4ccccc4)=NC4(CCCC4)N23)cc1 (stereo not given in full)	-7%	-12%
NC(N)=NOCCC(N)C(=O)O (stereo not given)	2%&-3%	.
c1ccc(C2CNCc3ccccc32)cc1 (stereo not given)	-1%	.
CC(=O)N(C1=NCCCS1)c1ccccc1Cl	7%	16%
CCc1nn(CC(=O)N2CCC3(CC2)OCCO3)c(=O)c2cc3ccccc3n12	1%	-2%
Cc1nonc1OCCNCCNc1ccc([N+](=O)[O-])c2cccnc12	-13%	-9%
COc1ccc(-c2nn(CCC#N)cc2C(=O)O)cc1	0%	0%
CC(=O)c1c(C)n(C2CCCCC2)c2ccc(O)cc12	-1%	9%
CCCCn1c(O)c(C(C)=NCCCN(C)C)c(=O)[nH]c1=O	0%	-10%
NCCc1c[nH]c2ccc(C(N)=O)cc12	-14%&-1%&1%&-10%	1%
CCc1ccc(C(=O)C23CN4CN(CN(C4)C2)C3)cc1	-9%	2%
C[Se]C[C@H](N)C(=O)O	3%	.
Nc1ccc2ccccc2c1	6%	13%
CC(N)Cc1c[nH]c2ccc(OCc3cccs3)cc12 (stereo not given)	-7%&3%	-20%
CCOc1cc(C=C2C(=O)NC(=O)NC2=O)cc([N+](=O)[O-])c1O	11%	.
NC(N)=NCCCCCCCCCCN=C(N)N	10%&-2%	.
Cc1ccnc(-n2c(C)cc(C=C3C(=O)N(C)C(=S)N(C)C3=O)c2C)c1	2%	-1%
CN1CCN(c2c(N)c(=O)oc3ccccc23)CC1	-5%	-2%
CCCN1CC[C@@H]2c3cc(O)ccc3CC[C@@H]21	1%&-3%&-6%	-1%
O=c1[nH]c(=S)n(C2CC2)c(O)c1C=NCC1CCCO1 (stereo not given)	0%	11%
O=C(Cc1ccccc1)N1CCN(C2CCCCCC2)CC1	-12%	16%
CCCCC/C=C\C/C=C\C/C=C\C=C\[C@H](CCCC(=O)O)OO	-4%&2%	.
CC1CN=C(Nc2ccc(F)c(Cl)c2)S1 (stereo not given)	-19%	-15%
COc1cc2c(cc1OC)C1[C@H]3C(=CC[C@H]1OC2O)CCN3C (stereo not given in full)	.	5%

# Entries from the list above that have a carbonyl joined to an NH by a bond outside any ring (6):
Structure	N370S GC mod	FEN1 inh
N#Cc1cc2c(nc1SCC(=O)Nc1cc(Cl)cc(Cl)c1)C1CCN2CC1	11%	12%
COC(=O)C1=C(c2ccc(C(C)=O)cc2)C[C@@H]2CC[C@H]1N2C(=O)NC1CC1	.	5%
CC(C)CC(=O)NC(Oc1ccc(Cl)cc1)C(Cl)(Cl)Cl (stereo not given)	-8%	0%
CCc1ccc(OCC(=O)N2CCN(CC(=O)Nc3ccccc3Cl)CC2)cc1	.	-3%
C/C=C1\NC(=O)[C@@H](NC(=O)[C@H](CCc2ccc(O)cc2)NC(=O)[C@H](C)NC(=O)[C@H](O)CO)[C@@H](C)OC(=O)[C@H](C(C)C)NC(=O)[C@H](Cc2ccc(O)cc2)N(C)C(=O)[C@H](Cc2ccccc2)N2C(=O)C(CC[C@H]2O)NC1=O (stereo not given in full)	.	-16%
NCCc1c[nH]c2ccc(C(N)=O)cc12	-14%&-1%&1%&-10%	1%

# (next part)
Structure	N370S GC mod	FEN1 inh
Cc1nn(-c2ccccc2)c(C)c1NC(=O)COC(=O)Cc1ccccc1	-4%	4%
C=CCN(C1=NCCN1)c1c(Cl)cccc1Cl	-1%	.
Cc1ccccc1NC(=O)Cc1nc(COC(=O)Cc2ccccc2)cs1	.	-8%
CCOP(=O)(OCC)C(NC(=O)C(Cl)Cl)C(Cl)(Cl)Cl (stereo not given)	2%	20%
C[Se]C[C@@H](N)C(=O)O	2%	-5%
CCc1ccccc1NC(=O)CN1CCN(C(=O)COc2ccccc2C#N)CC1	.	-2%
CCC1CN(C)CCC1(OC(C)=O)c1ccccc1 (stereo not given)	0%	11%
Cc1ccc(N2C(=O)NC(=O)/C(=C\c3cccn3C(C)(C)C)C2=O)cc1	7%	5%
O=C(NCC(c1cccnc1)N1CCOCC1)Oc1ccccc1 (stereo not given)	7%	-13%
Cc1cc(C)n(CCOC(=O)C2C(C=C(Cl)Cl)C2(C)C)n1 (stereo not given)	2%	-3%
COc1cccc(N2C(=O)NC(=O)/C(=C\c3ccc([N+](=O)[O-])s3)C2=O)c1	-11%	40µM*
CCNc1ccc(P(=S)(N(C)C)N(C)C)cc1	2%	2%

# Compounds shown so far that have a cyano group:
Structure	N370S GC mod	FEN1 inh
N#Cc1cc2c(nc1SCC(=O)Nc1cc(Cl)cc(Cl)c1)C1CCN2CC1	11%	12%
COc1ccc(-c2nn(CCC#N)cc2C(=O)O)cc1	0%	0%
CCc1ccccc1NC(=O)CN1CCN(C(=O)COc2ccccc2C#N)CC1	.	-2%

# Source: PubChem BioAssay
